Rce1 inhib: yeast Ras-converting enzyme inhibition. Q03530. yeast membranes, quenched prenylated peptide cleavage fluorescence. calls only. 0.27% of 290,000 active. AID 2563;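 active = fall in fluorescence gain of 50% or more versus controls, with final raw signal at or below 3038400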;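 note: plate controls were neutral control wells for no effect and wells lacking membranes for full effect; tested at 10 µM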
MT1-MMP act inh: blocks activation of human MT1-MMP | P50281 | HT1080 RFP-PRO-GFP cells, GFP/RFP ratio fluorescence, overnight; percent of plate control window, DMSO zero | GFP/RFP ratio change, % at 20 µM | 0.061% of 360,000 active;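 active = GFP/RFP ratio change of at least 30% with cell ATP level not reduced by more than half and red fluorescence within 50% of control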; note: strong numbers were not always called active
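Assay system: HT1080 RFP-PRO-GFP cells. Benchmarks: DMSO vehicle wells and RFP-L50D-GFP reporter cell wells. Times: overnight cell settling, then overnight compound exposure, 37 °C, 5% CO2. Compound: 20 µM single dose, 1% DMSO. Read-out basis: GFP/RFP fluorescence ratio.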
Yeast UUG start: alters start codon recognition fidelity in yeast; 0.13% of 350,000 active; S. cerevisiae UUG-firefly luciferase reporter, luminescence/redox ratio; activity score, % at 18.7 µM; AID 602363;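 active = replicate mean at a twofold rise or more, about +100% in these data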;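 note: firefly luciferase made from a UUG start codon reports start codon fidelity; reporter light over untreated wells divided by growth signal over untreated wells; some hits fall short of that in this replicate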
CSC inhib: cancer stem cell inhibition; inhibition, % at 7.5 µM; cancer stem cell-like cells viability, luminescence; AID 2717; 1.1% of 300,000 active;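 active = mean at 75% or more and at least half the replicates too; tested in HMLE shEcad cells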;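 note: 0% = median of negative and 100% = median of positive control wells; the first replicate is given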
PABP FP inh: blocks human PABP binding to poly(A) RNA. inhibition, % at 35 µM. P11940. fluorescence polarization. 1% of 290,000 active. AID 2014;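 active = 50% or more with normal probe brightness, or confirmed in later tests; about a fifth of its hits are not listed in these tables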;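 note: calls also rest on retests at 20 µM and on dose response follow-up; controls were probe without protein and protein plus probe with vehicle; some compounds called inactive have numbers as strong as hits; many hits fall short of the cut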
Target sequence (P11940 whole entry, looked up): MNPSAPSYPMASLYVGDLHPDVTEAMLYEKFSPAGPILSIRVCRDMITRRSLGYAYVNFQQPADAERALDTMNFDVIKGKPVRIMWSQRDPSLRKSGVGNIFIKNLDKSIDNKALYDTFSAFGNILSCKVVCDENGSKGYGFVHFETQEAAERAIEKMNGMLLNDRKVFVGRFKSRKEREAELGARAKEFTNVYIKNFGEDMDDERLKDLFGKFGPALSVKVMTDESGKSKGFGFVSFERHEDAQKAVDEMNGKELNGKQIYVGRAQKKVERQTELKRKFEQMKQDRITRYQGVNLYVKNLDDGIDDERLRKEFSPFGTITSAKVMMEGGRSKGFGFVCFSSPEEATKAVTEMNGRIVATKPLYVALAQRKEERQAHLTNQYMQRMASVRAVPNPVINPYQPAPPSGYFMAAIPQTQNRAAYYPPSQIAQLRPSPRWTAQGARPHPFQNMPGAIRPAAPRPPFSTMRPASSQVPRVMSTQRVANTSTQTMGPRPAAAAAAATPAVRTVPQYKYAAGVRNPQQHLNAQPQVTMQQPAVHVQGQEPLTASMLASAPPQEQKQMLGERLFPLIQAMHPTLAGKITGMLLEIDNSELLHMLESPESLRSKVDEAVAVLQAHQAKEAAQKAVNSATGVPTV
HIV Env fusion: blocks HIV Env-driven cell-cell fusion. HeLa-JRFL Env/CEM21 cell fusion, luciferase. 1.1% of 360,000 active. inhibition, % at 12.3 µM. AID 651610;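 active = mean replicate inhibition score of at least 50 and every replicate individually at or above 50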;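 note: 0% = plate neutral controls and 100% = maraviroc near 300 nM; one replicate is shown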
eIF4H inh: inhibitors of RNA binding by human eIF4H. 0.94% of 290,000 active. eIF4H fluorescence polarization binding assay. Q15056. inhibition, % at 35 µM;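 active = 50% or more with normal probe brightness, or confirmed in later tests; about a fifth of its hits are not listed in these tables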;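 note: calls also rest on retests at 20 µM and on dose response follow-up; 0% = protein and probe with vehicle and 100% = probe without protein; strong numbers were not always called active; many hits fall short of the cut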
eIF4H inh retest: recorded beside eIF4H inh, whose call it bears; inhibition, %; compound at 20 µM; confirmation average;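 mean of two retest wells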
PABP FP inh retest: second read-out of PABP FP inh, no call of its own (marks repeat the call); inhibition, %; compound at 20 µM; confirmation repeats;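 mean of two retest wells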
MT1-MMP act inh RFP: second read-out of MT1-MMP act inh, no call of its own (marks repeat the call); RFP signal change, %; measured here: RFP expression control read;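 0 = vehicle wells; hits needed this value within 50% of zero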
An asterisk follows results filed as active; i = inactive; · = not tested or not shown; & = joins results of further samples; [ ] = dose if it differs, or a comment. Only part of the results is shown (hit frequency here may not be typical).

SMILES | Rce1 inhib | MT1-MMP act inh | MT1-MMP act inh RFP | Yeast UUG start | CSC inhib | PABP FP inh | HIV Env fusion | eIF4H inh | others
CC(C)C(NC(=O)c1ccccc1NC(=O)c1ccccc1)C(=O)NNC(=O)c1ccncc1 (stereo unspecified) | i | -3 | -4 | -16 | -1 | -9 | -3 | -15
O=C(c1ccccc1)c1ccc2c(c1)OCCCO2 | i | 2 | 2 | -21 | 1 | 3 | -53 | 5
CC(=O)c1cccc(Nc2c3c(nc4ccccc24)CCC3)c1 | i | -5 | -15 | 0 | 61 | -2 | -73 | 1
CCN1CCCC1CN(Cc1cc2cc(C)cc(C)c2[nH]c1=O)C(=O)Nc1ccccc1OC (stereo unspecified) | i | · | · | · | 3 | 5 | · | -4
CCCc1nnc(SCC(=O)N2CCCCC2C)n1CC (stereo unspecified) | i | -3 | -1 | -5 | · | -5 | -1 | -6
c1ccc(-c2ccccc2OCCN2CCCCC2)cc1 | i | -3 | 1 | -3 | 0 | -6 | · | 14
NNC(=O)c1ccc2c(c1)S(=O)(=O)NNC2=O | i | 2 | 7 | · | -5 | 1 | -1 | 2
CCCN(CCC(=O)Nc1ccccc1F)CC1CC1 | i | -2 | 1 | -2 | -8 | 9 | · | -9
Cc1cc(C)cc(OCCNC(=O)CCc2ccccc2)c1 | i | 4 | 4 | 4 | · | -2 | 19 | 7
O=C1C2CC=CCC2C(=O)N1c1ncn[nH]1 (stereo unspecified) | i | 7 | 5 | -25 | -6 | 8 | -5 | -3
COC(CN(C(=O)CCl)C(C(=O)NC1CCCCC1)c1ccc(Cl)cc1)OC (stereo unspecified) | i | -5 | 2 | -2 | · | 8 | -4 | -1
OC(COc1ccccc1)CN1CCN(c2ncccn2)CC1 (stereo unspecified) | i | -4 | 3 | -20 | -7 | -1 | -20 | 5
CCNc1nc(C23CC4CC(CC(C4)C2)C3)cs1 | i | -8 | -10 | · | 71 | 7 | 20 | -1
CC(OC(=O)c1cc2ccccc2[nH]1)C(=O)N(C)c1ccccc1 (stereo unspecified) | · | -2 | -3 | -13 | -16 | · | -9 | ·
O=C(NCc1ccccc1)c1cc2nc(C3CC3)cc(C(F)(F)F)n2n1 | i | 1 | 1 | · | · | -5 | -44 | -5
CCCCNC(=O)c1ccc2c(c1)S(=O)(=O)c1ccccc1C2=O | i | -2 | -2 | -16 | · | 9 | 22 | -5
Cc1ccnc(NC(=O)c2cc3ccccc3oc2=O)c1 | i | 0 | -1 | · | 2 | 10 | -62 | 11
COC(=O)Cc1c(C(=O)OC)nnn1-c1ccc(OC)cc1 | i | 0 | -2 | -3 | 4 | 44 | 4 | 8
O=C(CCN1C(=O)/C(=C/c2ccccc2F)SC1=S)NCCc1ccc(O)cc1 | i | 4 | 1 | -14 | 8 | · | -6 | ·
O=S1(=O)CCOC[C@H](Cc2ccccc2)N1Cc1cccc(C(F)(F)F)c1 | i | 2 | -7 | 12 | 4 | · | 38 | ·
CS(=O)(=O)c1cnc(-c2ccccc2)nc1-c1ccccc1Cl | i | -2 | 1 | · | 0 | 5 | -11 | 10
Cc1ccc(OCC(=O)Nc2ccc(NC(=O)c3ccco3)cc2)c(C)c1 | · | 5 | 5 | -14 | 6 | 0 | 17 | -5
CCCCn1c(N)nc2ccccc21 | i | -1 | -3 | -14 | -18 | 4 | · | 7
COc1cccc(-c2csc3ncnc(Sc4nnnn4C)c23)c1 | · | -12 | -12 | -13 | · | · | -151 | ·
COC(=O)Cc1ccc(NC(=S)N2CCCC(C)C2)cc1 (stereo unspecified) | i | 2 | 2 | · | -10 | -1 | 4 | -2

Four compounds picked at random from those above:
SMILES | Rce1 inhib | MT1-MMP act inh | MT1-MMP act inh RFP | Yeast UUG start | CSC inhib | PABP FP inh | HIV Env fusion | eIF4H inh | others
O=C(CCN1C(=O)/C(=C/c2ccccc2F)SC1=S)NCCc1ccc(O)cc1 | i | 4 | 1 | -14 | 8 | · | -6 | ·
c1ccc(-c2ccccc2OCCN2CCCCC2)cc1 | i | -3 | 1 | -3 | 0 | -6 | · | 14
CCCCn1c(N)nc2ccccc21 | i | -1 | -3 | -14 | -18 | 4 | · | 7
CCNc1nc(C23CC4CC(CC(C4)C2)C3)cs1 | i | -8 | -10 | · | 71 | 7 | 20 | -1

The list goes on:
SMILES | Rce1 inhib | MT1-MMP act inh | MT1-MMP act inh RFP | Yeast UUG start | CSC inhib | PABP FP inh | HIV Env fusion | eIF4H inh | others
CCC(C)(C)NC(=O)c1ccc2c(c1)N(CC(=O)N1CCCC1)C(=O)C(C)(C)O2 | i | -3 | -2 | 3 | 0 | 8 | 6 | 1
COc1ccc(S(=O)(=O)N(C)CC(=O)NCCc2ccccc2)cc1OC | i | -3 | -5 | -1 | -27 | -3 | 10 | -6
CCC1CC2(C)NC(=O)c3c(sc4c3CC(C)(C)OC4)N2C1=O (stereo unspecified) | i | 7 | 0 | -16 | · | 1 | · | -4
COc1ccc(-c2c(C#N)sc(C(N)=O)c2-c2ccc(OC)cc2)cc1 | i | 1 | -8 | · | 9 | 4 | 18 | 6
COc1ccc(CN2C(=O)c3cccnc3C2Nc2cc(Cl)c(OC)cc2OC)cc1 (stereo unspecified) | i | -4 | -3 | -11 | · | -3 | 25 | -14
CCOC(=O)c1ccc(Cl)c(NC(=O)c2ccc(-c3ccccc3)cc2)c1 | i | 2 | 2 | -10 | -1 | 2 | · | -4
CCN(C(=O)CN1CCCCC1)C1(C)C(=O)c2ccccc2C1=O | i | 4 | 5 | · | -11 | -2 | 18 | -8
COc1ccc(NS(=O)(=O)c2cc(NC(=O)c3cccnc3Cl)ccc2N2CCCC2)cc1 | i | 2 | -5 | -1 | -15 | 4 | 7 | -2
CC1(C)CC(=O)C2=C(C1)OC(N)=C(C#N)C2C1C=CCCC1 (stereo unspecified) | i | 7 | -4 | -7 | -1 | 5 | · | -6
CN(C)C(=O)C(=O)c1cccn1-c1cccc(Cl)c1C#N | i | 3 | 3 | · | 0 | -3 | 4 | -4
O=C(NCc1ccco1)c1cccc2c1C(=O)N(C1CCCCC1)C2 | i | · | · | -8 | -2 | -3 | -234 | 0
Cn1ncc2c(NNC(=O)c3ccc(Cl)cc3Cl)ncnc21 | i | 3 | -1 | · | -9 | 4 | · | 20
Cc1ccc(S(=O)(=O)NCCCC(=O)N2CCC(C)CC2)cc1 | i | 0 | -2 | -15 | -18 | -1 | -2 | -3
COc1cc2c3nc4n(c(=O)c3n(CC(=O)NCC3CCCO3)c2cc1OC)CCS4 (stereo unspecified) | i | 10 | 2 | 4 | 5 | 2 | -4 | -6
COc1ccccc1[C@@H]1C(c2ccccc2)=NN(c2ccccc2)[C@H]1C(=O)N1CCOC1=O | · | -3 | 0 | -3 | · | · | 37 | ·
Cc1ccc(-c2nnn(CC(=O)N(CC(=O)NC3CCCC3)c3cccc(F)c3)n2)o1 | i | -2 | -8 | -8 | -4 | -7 | -4 | 5
CCN1C(=O)[C@H]2[C@@H](c3ccc(-c4ccccc4)cc3)N[C@@](C)(C(=O)OC)[C@H]2C1=O | i | 1 | -1 | 1 | 26 | · | 0 | ·
Nc1ccc(/C=C/C(=O)c2cccs2)cc1 | i | -7 | 0 | · | -20 | 32 | 9 | 65* | eIF4H inh retest=61*;PABP FP inh retest=17
CC1=C(C(=O)Nc2ccccn2)C(c2cccnc2)n2nnnc2N1 (stereo unspecified) | i | 4 | -2 | 2 | 3 | -15 | · | 0
CCN(Cc1ccccc1)c1ccc(N=Nc2nn(C)c(C)c2[N+](=O)[O-])cc1 | i | 29 | -5 | -4 | 14 | -10 | -9 | -3
CC(=O)c1ccc(N2CCN(c3ccc(S(=O)(=O)NCCCN(C)C)cc3[N+](=O)[O-])CC2)cc1 | i | 4 | -6 | · | 82* | 4 | -7 | -2
CC(C)CCNC(=O)C1CCC(CNc2c(N3CCC(C)CC3)c(=O)c2=O)CC1 (stereo unspecified) | i | -2 | -2 | -11 | -18 | 10 | 5 | 4
O=c1cc(-c2ccc(Cl)c(Cl)c2)[nH][nH]1 | i | -5 | 0 | -18 | -2 | -5 | · | 2
O=C(NCc1n[nH]c(=S)n1-c1ccc([N+](=O)[O-])cc1)c1ccc(S(=O)(=O)N2CCOCC2)cc1 | i | 3 | -1 | · | -9 | 0 | 4 | -4
O=[N+]([O-])c1cc(/C=N/O)ccc1N1CCCC1 | · | 3 | -2 | · | -11 | -2 | 14 | 4

Next part; the last 3 above are carried over.
SMILES | Rce1 inhib | MT1-MMP act inh | MT1-MMP act inh RFP | Yeast UUG start | CSC inhib | PABP FP inh | HIV Env fusion | eIF4H inh | others
O=c1cc(-c2ccc(Cl)c(Cl)c2)[nH][nH]1 | i | -5 | 0 | -18 | -2 | -5 | · | 2
O=C(NCc1n[nH]c(=S)n1-c1ccc([N+](=O)[O-])cc1)c1ccc(S(=O)(=O)N2CCOCC2)cc1 | i | 3 | -1 | · | -9 | 0 | 4 | -4
O=[N+]([O-])c1cc(/C=N/O)ccc1N1CCCC1 | · | 3 | -2 | · | -11 | -2 | 14 | 4
O=C(c1ccc(Br)cc1)N1CCN(c2ncccn2)CC1 | i | 2 | 1 | 7 | · | · | 8 | ·
FC(F)(F)c1ccc(Oc2ccc3cc(Br)ccc3c2)nc1 | i | 0 | -3 | · | · | 10 | 23 | -2
COc1ccc(C(=O)NC2CCN(C(=O)NC3CCCCC3)CC2)cc1 | i | -4 | -3 | 11 | 4 | 6 | -20 | -3
CCOC(=O)C1CCN(C(=O)CC(NS(=O)(=O)c2ccc(OC)cc2)C(C)C)CC1 (stereo unspecified) | i | 3 | 7 | -12 | -7 | -4 | · | 6
O=C(NNC(=O)c1cc2ccccc2o1)c1ccc(Cl)cc1 | i | -1 | 1 | -10 | -5 | -11 | -5 | -7
CC1(C(=O)NS(=O)(=O)c2ccccc2Cl)CCN1C(=O)Cc1cccc2ccccc12 (stereo unspecified) | · | 3 | 5 | -2 | · | · | 29 | ·
CCCCC(C(=O)NC1CCCC1)N(Cc1ccccc1)C(=O)c1snc(C(N)=O)c1N (stereo unspecified) | i | 0 | -4 | -10 | -5 | 0 | 21 | -5
COC(=O)c1c(-c2ccc(OC)cc2)sc2ccc(OC)cc12 | · | -2 | 0 | 5 | 40 | · | -97 | ·
O=C(NCc1nc2ccccc2[nH]1)C1=C[C@H](c2ccc3c(c2)OCO3)C[C@H](OCCCCO)O1 | i | 0 | 1 | -18&-27 | 8 | -4 | 3[16.7 µM] | -4
COc1ccc(N2CCN(Cc3cc(=O)oc4cc(C)c(Cl)c(C)c34)CC2)cc1 | i | -1 | -1 | 14 | -3 | 4 | · | -12
Cc1ccc(OCC(O)CN2C(=O)NC(C)(C)C2=O)c(C)c1 (stereo unspecified) | i | -1 | 0 | · | -4 | -4 | 4 | -12
Cc1ccc(NC(=O)CCc2nnc3ccc(NCc4ccco4)nn23)cc1 | i | 1 | 3 | -22 | 3 | 8 | -4 | 20
COc1cccc(NC(=S)N(CCc2ccc(OC)c(OC)c2)Cc2ccccn2)c1 | i | 5 | -3 | · | 6 | -12 | -4 | 4
CC(C)N1CCC(C)(C(=O)Nc2cccc(Oc3ccccc3)c2)C1 (stereo unspecified) | · | 6 | 0 | -1 | · | · | 7 | ·
CCC(C)[C@H](N)c1nnc(SCC(=O)c2ccc(Cl)cc2)o1 (stereo partly specified) | i | 3 | -1 | -15 | -3 | 1 | 10 | -3
Cc1cc(C)c(N=C2C(=O)Nc3ccccc32)c(C)c1 | i | -3 | 3 | -17 | 8 | 8 | -18 | 10
OCC(O)/C=N/Nc1nc2ccccc2s1 (stereo unspecified) | i | 1 | 1 | · | 3 | 1 | 9 | 4

Screens: PubChem, several laboratories
